VACV Venus inh: inhibitors of vaccinia virus (Venus reporter). Potency, µM (doses to about 36.5 µM), for the others: top-dose activity change, negative = inhibition, most hits filed as inhibitors. 330,000 compounds, 0.46% hits. AID 720580. Vaccinia virus Venus reporter expression, fluorescence; active means well fitted inhibition curve with a large enough effect; inconclusive means small, poorly fitted or top-dose-only effect; inactive means no such curve, though single readings can be large or run the other way; tested in A549 cells; further: nearly all actives have a fitted effect of over 30% in size; inactives centre near -10
VACV mCherry inh: inhibitors of vaccinia virus infection (mCherry reporter signal); Vaccinia virus mCherry reporter infection, fluorescence; about a quarter of the inactives have no number; Potency, µM (top dose mostly 36.5 µM), without a hit: at the highest dose activity change, negative = inhibition, actives largely listed as inhibitors; 310,000 compounds, 0.63% hits; AID 720579; active = well fitted inhibition curve with a large enough effect; inconclusive = small, poorly fitted or top-dose-only effect; inactive = no such curve, though single readings can be large or run the other way; tested in A549 cells; further: nearly all actives have a fitted effect of over 35% in size; inactives centre near -10
Starred values were filed as active, the others as inactive; i = inactive; ? = inconclusive; · = not tested or not shown; [ ] = remark or other dose. On the % scale 0 is the no-effect control and ±100 the full control effect; potency means the concentration at half of the fitted maximal effect. An unsorted share of the library; any-hit rate near 0.87%.

SMILES	VACV Venus inh	VACV mCherry inh
CCCC(=O)c1c[nH]c(C(=O)NCc2ccco2)c1	-11%	·
Cc1csc(N(C(=O)c2ccc(S(=O)(=O)N(C)C)cc2)c2ccccc2)n1	9%	·
O=C(c1ccccc1)c1ccc(N2CCOCC2)cc1	-17%	-5%
CCNC(=O)C1CCCN(C(=O)c2cccs2)CC1 (stereo not drawn)	-1%	8%
c1ccc2c(CCNC3CCCCC3)c[nH]c2c1	-2%	?
COc1ccc(NC(=O)CC2C(=O)N(c3ccc(C)cc3)C(=O)N2CCc2ccccc2)cc1 (stereo not drawn)	-11%	-5%
O=C(COc1ccc(Cl)cc1)NCCCn1ccnc1	-13%	·
c1ccc2c(CNn3cnnc3)cccc2c1	-9%	-21%
COc1cccc(CC(=O)Nc2ccc(S(=O)(=O)N3CCOCC3)cc2)c1	-9%	-14%
O=C(Nc1ccccc1)N1CCN(c2cccc(C(F)(F)F)c2)CC1	-26%	-2%
Cc1ccc(C(=O)N2CCc3cc(CNS(=O)(=O)c4cccs4)ccc32)cc1	-15%	-22%
CCn1c(=O)c(C(=O)NCc2ccc(F)cc2)c(O)c2ccccc21	-2%	i
O=C(Nc1ccc(-c2cn3ccccc3n2)cc1)c1ccco1	-19%	-16%
O=C(COc1ccc([N+](=O)[O-])cc1)Nc1cc(C(=O)O)cc(C(=O)O)c1	-2%	-1%
O=C(COc1ccccc1[N+](=O)[O-])Nc1cc(-c2nc3cc(Cl)ccc3o2)ccc1Cl	16%	5%
COC(=O)c1ccc(NC(=O)CSC2=NC(=O)C(c3ccccc3)C(=O)N2)cc1 (stereo not drawn)	-13%	i
CCc1ccc(CCC(=O)Nc2nnc(C)s2)o1	-8%	-8%
FC(F)(F)COc1ccc(-n2ccnc2)nn1	-2%	-4%
O=C(NCc1ccco1)C(c1ccccc1)N(C(=O)Cc1cccs1)c1cccnc1 (stereo not drawn)	2%	i
O=C1Nc2ccccc2/C1=C/c1cnc(-c2ccccc2)[nH]1	-5%	?
NC(=O)c1nsc(C(=O)N(CC(=O)NCc2ccc(F)cc2)Cc2ccco2)c1N	0%	0%
Cc1ccc(C(=O)N2CCN(c3ccc(NC(=S)NC(=O)c4cccs4)cc3)CC2)cc1	-28%	?
O=c1c2cccnc2[nH]c(=S)n1CCCN1CCN(c2ccccc2F)CC1	-9%	i
CCn1ccc2c(OCC(=O)Nc3ccccc3C)cccc2c1=O	-11%	3%
CCOC(=O)c1sc(NC(=O)CS(=O)(=O)c2ccc(C)cc2)nc1C	-14%	-16%
Cc1c(Cl)c(=O)oc2cc(OCC(=O)NCc3cccs3)ccc12	-14%	-13%
Cc1nc(Cc2nnc(SCC(=O)N3CC(=O)Nc4ccccc43)o2)cs1	1%	-13%
O=C(Nc1ccc(F)cc1F)C1CCN(S(=O)(=O)c2ccc3[nH]c(=O)ccc3c2)CC1	4%	5%
CCC(=O)Nc1ccc(NC(=O)Cc2ccccc2)cn1	-6%	-11%
COc1ccc(C2=NC(c3ccncc3)=Nc3ccc(Br)cc3N2)cc1	-10%	-4%
O=C(NCCc1ccco1)C(=O)NCC1OCCCN1S(=O)(=O)c1ccc(F)cc1 (stereo not drawn)	-14%	-3%
CCCCCOc1ccc(C(=O)NC(CCC)C(=O)O)cc1 (stereo not drawn)	-6%	·
Cc1cc(Nc2cccc(F)c2)nc(-c2ccccc2O)n1	?	?
CCOC(=O)Nc1ccc2c(c1)Cc1cc([N+](=O)[O-])ccc1-2	-7%	-14%
NC(=O)/C(=C/c1ccco1)C(N)=S	-6%	-15%
Cc1ccc(OCC(=O)c2cc(C)n(-c3ccccc3)c2C)c([N+](=O)[O-])n1	-8%	-12%
N#CC(C(N)=O)=C1CCC2(CC1)OCCCCO2	-28%	·
O=C(O)CCCN=C1CCCc2ccccc2N1	6%	-6%
COc1ccc(-c2nnc(SCC(=O)N(C)C3CCS(=O)(=O)C3)n2N)cc1OC (stereo not drawn)	-5%	-13%
CC(=O)c1cccc(NC(c2ccc(F)cc2)c2nnc(-c3ccccc3)o2)c1 (stereo not drawn)	2%	2%
O=S(=O)(NCC(Nc1ccc(Cl)cc1)c1ccccc1)c1ccccc1 (stereo not drawn)	?	?
Cc1[nH]c2ccccc2c1/C=N/NC(=O)c1cccc(S(=O)(=O)Nc2ccccc2Cl)c1	-18%	-2%
COc1ccc(N2CCN(C(=O)Cn3cnc4sc(C)c(S(=O)(=O)N5CCOCC5)c4c3=O)CC2)cc1	-8%	-10%
CN1C(=O)C(=O)N(c2cccc(C(F)(F)F)c2)C1=O	-12%	-17%
Cc1cccc(C(=O)O/N=C/c2c(Cl)n(C)c3ccccc23)c1	-20%	·
O=C(COc1ccc(-c2nnco2)cc1)N1CCN(S(=O)(=O)c2ccccc2)CC1	-3%	-9%
C[C@H](CO)N1C[C@H](C)[C@@H](CN(C)CC2CCCCC2)Oc2c(NS(=O)(=O)c3ccc(F)cc3)cccc2C1=O	-8%	0%
O=C(N/N=C/c1nn(-c2ccccc2)cc1-c1ccccc1)c1ccncc1	-8%	-20%
COc1cc(CNCCO)cc(Br)c1OCc1cccs1	-15%	·
COc1ccc(Cl)cc1N(CC(=O)N/N=C/c1ccc(OC(C)C)cc1)S(=O)(=O)c1ccc(C)c([N+](=O)[O-])c1	-23%	i
(further entries)
SMILES	VACV Venus inh	VACV mCherry inh
COc1ccc(OC)c(C2/C(=C(\O)c3ccc(OC)c(Cl)c3)C(=O)C(=O)N2CCN(C)C)c1 (stereo not drawn)	-7%	-1%
CCCCOCCCNC(=O)Cc1cccs1	-5%	i
O=C(CN1CCN(S(=O)(=O)c2ccccc2)CC1)Nc1ccc(Cl)c([N+](=O)[O-])c1	-24%	-4%
CCCCn1c(N)c(N(CC(C)C)C(=O)C2CCN(S(=O)(=O)c3ccc(C)c(C)c3)CC2)c(=O)[nH]c1=O	-6%	i
COc1ccc(Cl)cc1N1C(=O)[C@@H]2C[C@H]1CN2Cc1nc2ccccc2nc1C	10%	-6%
C#CCOCCOCCOCCNc1nc(N2CCN(C(=O)Cn3cc(CCCCN)nn3)CC2)nc(N2CCN(C(=O)Cn3cc(CCCN=C(N)N)nn3)CC2)n1	-1%	-17%
C=CCN(C(=O)c1csnn1)C(C(=O)NC1CCCCC1)c1ccc(C)cc1 (stereo not drawn)	-11%	-4%
Cc1c(N=C2N=C(NC(=O)c3cccs3)c3ccccc32)c(=O)n(-c2ccccc2)n1C	-6%	-19%
COc1ccc(-c2nc(Cn3c(=O)cc(C)c4c(C)nn(-c5ccccc5)c43)c(C)o2)c(OC)c1	-3%	-11%
CN1CCS/C1=C/C=C1/SC(=S)N(Cc2ccccc2)C1=O	54%[activator]	-9%
COc1ccc(N2CCN(C(=O)CCCNC(=O)Cn3cnc4sc(C)c(C)c4c3=O)CC2)cc1	2%	2%
CC(=O)NCCc1ccc(S(=O)(=O)N2CCOCC2)cc1	-29%	·
CCOC(=O)CNC(=O)CSc1cc(C)nc2ccc(OC)cc12	-2%	-5%
CC1CCCN(CCCNC(=O)c2cc3c(Cl)nc4ccccc4c3s2)C1 (stereo not drawn)	?	-4%[7.34 µM]
CCCc1cc(C(=O)Nc2cccnc2)no1	2%	6%
OC(COc1ccccc1)CN1CCN(Cc2ccc3c(c2)OCO3)CC1 (stereo not drawn)	3%	?
O=C(CSc1ccc(-c2ccco2)nn1)Nc1ccccc1	-16%	-8%
COc1ccc(OC)c(CNC(=O)c2cc(S(=O)(=O)N3CCC(C)CC3)cn2C)c1	-16%	-15%
COc1ccc(/C=N/NC(=O)c2ccc(N)cc2)cc1Cn1cc([N+](=O)[O-])cn1	17%	?
CNC(=O)COc1ccc(Cl)c2cccnc12	-2%	i

Random excerpt: six entries already listed.
SMILES	VACV Venus inh	VACV mCherry inh
COc1ccc(N2CCN(C(=O)CCCNC(=O)Cn3cnc4sc(C)c(C)c4c3=O)CC2)cc1	2%	2%
OC(COc1ccccc1)CN1CCN(Cc2ccc3c(c2)OCO3)CC1 (stereo not drawn)	3%	?
CCOC(=O)CNC(=O)CSc1cc(C)nc2ccc(OC)cc12	-2%	-5%
CC(=O)NCCc1ccc(S(=O)(=O)N2CCOCC2)cc1	-29%	·
COc1ccc(/C=N/NC(=O)c2ccc(N)cc2)cc1Cn1cc([N+](=O)[O-])cn1	17%	?
O=C(CSc1ccc(-c2ccco2)nn1)Nc1ccccc1	-16%	-8%

Carrying on:
SMILES	VACV Venus inh	VACV mCherry inh
CC(C)c1nc2n[nH]c(N)c2c2c1CCCC2	-22%	-27%
Cc1nc(N)nc(N)c1/C=C/C(C)(C)c1ccc(Cl)cc1	3.5µM*	?
NC(=O)CSc1nnc(-c2ccc3c(c2)OCO3)o1	0%	-1%
CC(=O)Nc1ccc(CCCCc2ccc(NC(C)=O)cc2)cc1	-11%	-21%
CC(=O)OCC(=O)[C@]1(O)C(OC(C)=O)CC2C3CCC4=CC(=O)C=C[C@@]4(C)[C@]3(F)C(O)C[C@]21C (stereo partly drawn)	-6%	-12%
COc1ccc(OC)c(CNC(=O)c2[nH]c(C(F)(F)F)nc2-c2ccccc2)c1	-15%	2%
O=C(c1ccc(NS(=O)(=O)c2ccc(F)cc2)cc1)N1CCOCC1	-4%	-22%
CN(C(=O)COC(=O)c1ccc2c(=O)n3c(nc2c1)CCC3)C1CCS(=O)(=O)C1 (stereo not drawn)	-1%	-6%
Cc1cc(Cl)ccc1NC(=S)N1CCN(Cc2ccccc2)CC1	-21%	-7%
COC(=O)c1ccc(OCC(=O)NC(C)(C)C)cc1	-11%	·

Whole records as entered above:
COc1ccc(OC)c(CNC(=O)c2[nH]c(C(F)(F)F)nc2-c2ccccc2)c1 as listed: VACV Venus inh = -15%; VACV mCherry inh = 2%
Cc1nc(N)nc(N)c1/C=C/C(C)(C)c1ccc(Cl)cc1 as listed: VACV Venus inh = 3.5µM*; VACV mCherry inh = ?

(next part)
SMILES	VACV Venus inh	VACV mCherry inh
COc1ccc(NS(=O)(=O)CC(C)C)c(OC)c1	-7%	-13%
Cc1ccc(OCCn2cnc3cc([N+](=O)[O-])ccc3c2=O)cc1	-21%	-19%
O=C(O)CN1CCN(c2ncc(C(F)(F)F)cc2Cl)CC1	-15%	-2%
COc1ccc(-c2nsc3c(SCc4ccccc4)ncnc23)cc1	-11%	i
COCCNc1nc(NCCCN2CCCC2=O)c2sccc2n1	0%	9%
CCOC(=O)c1cc2c(ccn2C)n1CC(=O)N(Cc1ccccc1)c1ccccc1	-20%	-21%
Cc1cc(C)nc(NS(=O)(=O)c2ccc(NC(=O)c3ccc(S(=O)(=O)N4CC(C)OC(C)C4)cc3)cc2)n1 (stereo not drawn)	-13%	i
CCOc1ccccc1C(=O)NCC(=O)OCc1c(C)noc1C	-13%	i
CC(=O)N/N=C/c1cc([N+](=O)[O-])ccc1OCCOc1ccccc1	-7%	·
Cc1cc(NC(=O)c2ccc3[nH]c(C)c(C)c3c2)ccn1	-20%	?
Cn1c(=O)c2cc(S(=O)(=O)N3CCOCC3)ccc2n(C)c1=O	-12%	-2%
O=C(Nc1cc(C(F)(F)F)ccc1Cl)c1ccc2c(c1)CCN2S(=O)(=O)c1ccccc1	-5%	-20%
CC1(C)CC(=O)C2=C(C1)N(c1ccccc1C#N)C(N)=C(C#N)C2c1cccs1 (stereo not drawn)	?	·
CCCNc1nc(C)cc(-c2cc(C(=O)NCc3ccccc3)on2)n1	-23%	i
O=C(Cn1c(=O)n(-c2ccc(F)c(Cl)c2)c(=O)c2sc3ccccc3c21)NC1CCCCC1	4%	3%
CC(CC(O)C1OC1(C)C)C1CCC2(C)C3=CCC4C(C)(C)C(=O)CCC4(C)C3CC[C@@]12C (stereo partly drawn)	-7%	-15%
CSCCC(NC(=O)c1ccco1)C(=O)NCCc1ccc(Cl)cc1 (stereo not drawn)	-10%	i
Cc1ccccc1OCC(=O)Nc1nc2ccccc2[nH]1	-11%	-12%
COC(=O)c1ccccc1NC(=O)CNC(=O)c1ccc(OC)cc1	5%	4%
Cc1ccc(S(=O)(=O)CCC(=O)OCC(=O)NC(=O)c2ccccc2)cc1	-4%	i
CCOC(=O)CNC(=O)CSc1nnc(NC(=O)c2ccc3c(c2)OCO3)s1	-13%	-10%
N#C/C(=C/c1cn(-c2ccccc2)nc1-c1cccc(S(=O)(=O)N2CCCC2)c1)C(=O)NCc1ccco1	-12%	-24%
Cc1nn(C)c(Oc2ccccc2)c1CCNS(=O)(=O)c1ccc(F)cc1	?	?
CC1CCN(c2c(NCc3ccc(C(=O)NCCc4ccc(Cl)cc4)cc3)c(=O)c2=O)CC1	-28%	?
CC(=O)Nc1nnc(C)s1	-7%	0%
CC(C)(C)c1cc(NC(=O)C2(C)CCN2C(=O)c2ccccc2CCc2ccccc2)no1 (stereo not drawn)	-6%	i
CCc1ccc(NC(=O)Cn2c(=O)n(CCC(C)C)c(=O)c3cccnc32)cc1	-11%	-5%
Brc1ccc2[nH]c3c(NCc4ccccn4)ncnc3c2c1	-8%	i
COc1ccc(-c2[nH]ncc2CN(C)C(C)c2ccon2)cc1F (stereo not drawn)	-7%	-13%
Cc1cccc(-c2nnn(Cc3nnc(NC(=O)c4ccccc4)s3)n2)c1	-4%	·
Cc1ccc(C(=O)NCC(=O)N(C)Cc2ccccc2C)s1	-24%	-5%
CC(=O)[C@H]1CC[C@H]2[C@@H]3CC=C4C[C@@H](OS(=O)(=O)O)CC[C@]4(C)[C@H]3CC[C@]12C	-10%	-8%
Cc1cnc(CNc2nc(-c3ccc(N(C)C)cc3)nc3ccccc23)cn1	?	11µM*

Screening results: PubChem, National Center for Advancing Translational Sciences (NCATS)
